Screening results (PubChem)
Sa growth inh: inhibitors of Staphylococcus aureus growth at 42 °C | relative growth, % (test concentration not listed) | 170,000 compounds, 0.53% hits | AID 720641 | S. aureus RN4220 growth, OD600, 20 h; active compounds read low;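 active means growth at 42 °C up to 50% and 20 or more points under that at 30 °C, or under 10% at both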;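 further: 300 nL library stock went into each well; scaled to the means of positive and negative controls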
GIV-Gai inh: GIV-Galpha-i interaction inhibition | P08753 | Galpha-i3/FITC-GIV peptide fluorescence polarization, 90 min; active compounds read low; scaled: aluminum fluoride 0%, vehicle 100% | 210,000 compounds, 0.42% hits | percent of control (FP), % (no concentration beside the values);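 active means replicate mean at 85% of control or lower, very high polarization wells dropped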;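 further: wells of about 15 µL received 100 nL stock; the first replicate is given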
Target sequence (P08753 whole entry, looked up): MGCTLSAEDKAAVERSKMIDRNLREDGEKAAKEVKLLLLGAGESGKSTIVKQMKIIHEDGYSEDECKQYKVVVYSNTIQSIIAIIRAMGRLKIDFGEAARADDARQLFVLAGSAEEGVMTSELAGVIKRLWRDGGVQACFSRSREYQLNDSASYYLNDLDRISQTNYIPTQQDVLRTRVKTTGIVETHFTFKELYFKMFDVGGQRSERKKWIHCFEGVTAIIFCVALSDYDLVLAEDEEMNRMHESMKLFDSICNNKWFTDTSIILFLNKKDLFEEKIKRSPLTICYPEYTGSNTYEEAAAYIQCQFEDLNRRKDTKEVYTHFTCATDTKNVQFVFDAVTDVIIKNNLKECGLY
HCMV NEC inh: disrupts HCMV UL50-UL53 complex binding | HTRF UL50-UL53 interaction, normalized percent inhibition | inhibition, % (concentration not given with the values) | 190,000 compounds, 0.15% hits;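 active means both replicates at 50% or more, plus weaker picks with an unusually low signal ratio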;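 further: stock transfer was 100 nL into about 20 µL; 0% = negative control wells and 100% = wells with untagged competitor protein; inactives centre near -12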
Sa growth inh second temp: recorded beside Sa growth inh, whose call it bears; relative growth, %; measured here: growth at 30 °C;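 optical density after 20 h as mean of two plates; 100% = untreated growth and lower means inhibition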
Starred values were filed as active, the others as inactive; . = no result given; & = joins results of further samples.

SMILES,Sa growth inh,Sa growth inh second temp,GIV-Gai inh,HCMV NEC inh
O=C(NCn1c(=S)n(CNC(=O)c2cccnc2)c2ccccc21)c1cccnc1,84,92,.,-15
COc1ccc(CCNC(=O)CCS(=O)(=O)c2ccc3nc(C)sc3c2)cc1OC,.,.,101,-10
CCOC(=O)C1=C(C)N=c2s/c(=C\c3ccc(OC(C)=O)cc3OC(C)=O)c(=O)n2C1c1ccc(OC)cc1 (stereo unspecified),.,.,113,-20
COC(=O)C1=C(C)OC(N)=C(C#N)C1c1cc(C)cc(Cn2ccc(C(F)(F)F)n2)c1C (stereo unspecified),99,55,109,.
Cc1nc2c(o1)N(c1ccccc1)C(N)=C(C#N)C2c1ccc(OC(C)C)cc1 (stereo unspecified),73,96,.,-27
COc1cccc(NCc2nnc(SCC(=O)N3CCc4ccccc43)n2C2CCCCC2)c1,112,95,.,4
O=C(Nc1ccc2c(c1)OCO2)c1ccccc1NC(=O)C1CC(=O)N(C2CCCC2)C1 (stereo unspecified),91,87,.,-22
CCOc1ccccc1NC(=O)C(NS(=O)(=O)c1ccc2c(c1)CCC(=O)N2)c1ccccc1 (stereo unspecified),98,75,100,-43
CN(C)CCCNCc1ccccc1F,102,85,102,-23
CN(Cc1ccccc1)C(=O)Cn1nc(-c2ccc(Cl)cc2)ccc1=O,114,77,104,.
O=C1CN(C(=O)/C=C/c2ccc(S(=O)(=O)NCc3ccco3)cc2)c2ccccc2N1,89,73,.,-72
Cc1ccc(C)c(NC(=S)NC2CC(C)CC(C)(C)C2)c1 (stereo unspecified),85,81,102,-9
COc1ccc(C)cc1NC(=O)CN(C)S(=O)(=O)c1ccc2c(c1)CCCN2C(C)=O,92,83,105,.
Cc1ccc(/C=C/c2onc(C)c2S(=O)(=O)N2CCC(C(=O)NCc3ccc(C)o3)CC2)cc1,118,106,112,.
CCCC12CCC(C(=O)O)(CC1)CC2,135,124,101,-16
Cc1ccc(-c2n[nH]c(=S)n2C)cc1,89,90,109,1
COc1ccccc1OCC(=O)Nc1noc(-c2ccccc2)n1,.,.,102,9
COc1ccc(CN2C(=O)CC(Cc3ccccc3)C2=O)cc1OC (stereo unspecified),85,83,101,-23
CCOc1cccc(NC(=O)CSc2ncc(-c3ccc(Cl)cc3)[nH]2)c1,110,76,103,-3
CCC(Sc1nc2ccncc2[nH]1)C(=O)NCCc1ccccc1 (stereo unspecified),117,78,107,.
O=C(NCc1ccco1)c1cc(-c2ccccc2)on1,108,80,104,-9
CCOC(=O)c1cccc(NC(=O)c2cc(-c3ccccn3)n[nH]2)c1,.,.,98,-14
Cc1ccc(C2C(=O)N(C3CCC(C)CC3)CC(=O)N2C2CCCC2)cc1 (stereo unspecified),97,87,101,.
CCCCN=Cc1c(O)n(-c2ccc(Cl)cc2)c(=O)[nH]c1=O,104,101,213,18
CCOc1nc2cccnc2n(CC(=O)Nc2ccccc2OC)c1=O,.,.,104,-37
O=S(=O)(c1ccc(N2CCCC2)nc1)N1CCCC1,112,105,.,-4
Cc1onc(-c2ccccc2)c1CNS(=O)(=O)c1ccc2c(c1)CCO2,105,58,101,-6
CC(C(=O)O)n1cc(Cl)cn1 (stereo unspecified),81,84,104,-22
O=c1oc2cc(O)ccc2cc1-c1nc2ccccc2s1,73,40,-79*,-60
COc1ccc(C(=O)Nc2ccccc2)cc1S(=O)(=O)N1CCC(C)CC1,107,98,105,-7
COc1ccc(C2=NN3C(C2)c2ccccc2OC3c2ccc(OC)c(OC)c2)cc1OC (stereo unspecified),.,.,138,-13
CCOc1ccc(CCNC(=O)C2=C(C)C(=O)OC23CCC(C)CC3)cc1OCC (stereo unspecified),99,90,106,-21
Cc1cccc(NS(=O)(=O)c2ccc3c(c2)CCN3C(=O)CCC(=O)O)c1C,111,91,100,-24
CCCOc1ccc(C(=O)Nc2cc3c(cc2Sc2ccccc2)n(C)c(=O)n3C)cc1,.,.,98,-20
CCCCNC(=O)c1ccc2c(c1)NC(=O)C(CS(=O)(=O)Cc1cccc(C)c1)N2 (stereo unspecified),99,89,141,.
O=C(NCc1ccc(F)cc1)c1ccc(Nc2nc3ccccc3n3nnnc23)cc1,101,95,107,-6
Cn1cc(S(=O)(=O)N2CCCC2)cc1C(=O)N1CCN(C2CCCCC2)CC1,92,85,105,-22
O=C(CSc1nc2ccccc2o1)Nc1ccccn1,86,86,.,-13
Cc1ccc(CNc2nc(-c3ccco3)nn2S(=O)(=O)c2ccc3ccccc3c2)cc1,99,86,105,20
COCCNC(=O)c1cccc(NC(=O)N2CCCCc3ccccc32)c1,.,.,105,-16

Given with values under each structure: entries from further up
Order of results: Sa growth inh | Sa growth inh second temp | GIV-Gai inh | HCMV NEC inh
O=C(NCc1ccco1)c1cc(-c2ccccc2)on1
    108 | 80 | 104 | -9
CCOC(=O)c1cccc(NC(=O)c2cc(-c3ccccn3)n[nH]2)c1
    . | . | 98 | -14
Cc1ccc(C2C(=O)N(C3CCC(C)CC3)CC(=O)N2C2CCCC2)cc1 (stereo unspecified)
    97 | 87 | 101 | .
CCCCN=Cc1c(O)n(-c2ccc(Cl)cc2)c(=O)[nH]c1=O
    104 | 101 | 213 | 18
CCOc1nc2cccnc2n(CC(=O)Nc2ccccc2OC)c1=O
    . | . | 104 | -37
O=S(=O)(c1ccc(N2CCCC2)nc1)N1CCCC1
    112 | 105 | . | -4
Cc1onc(-c2ccccc2)c1CNS(=O)(=O)c1ccc2c(c1)CCO2
    105 | 58 | 101 | -6
CC(C(=O)O)n1cc(Cl)cn1 (stereo unspecified)
    81 | 84 | 104 | -22
O=c1oc2cc(O)ccc2cc1-c1nc2ccccc2s1
    73 | 40 | -79* | -60
COc1ccc(C(=O)Nc2ccccc2)cc1S(=O)(=O)N1CCC(C)CC1
    107 | 98 | 105 | -7
COc1ccc(C2=NN3C(C2)c2ccccc2OC3c2ccc(OC)c(OC)c2)cc1OC (stereo unspecified)
    . | . | 138 | -13
CCOc1ccc(CCNC(=O)C2=C(C)C(=O)OC23CCC(C)CC3)cc1OCC (stereo unspecified)
    99 | 90 | 106 | -21
Cc1cccc(NS(=O)(=O)c2ccc3c(c2)CCN3C(=O)CCC(=O)O)c1C
    111 | 91 | 100 | -24
CCCOc1ccc(C(=O)Nc2cc3c(cc2Sc2ccccc2)n(C)c(=O)n3C)cc1
    . | . | 98 | -20
CCCCNC(=O)c1ccc2c(c1)NC(=O)C(CS(=O)(=O)Cc1cccc(C)c1)N2 (stereo unspecified)
    99 | 89 | 141 | .
O=C(NCc1ccc(F)cc1)c1ccc(Nc2nc3ccccc3n3nnnc23)cc1
    101 | 95 | 107 | -6
Cn1cc(S(=O)(=O)N2CCCC2)cc1C(=O)N1CCN(C2CCCCC2)CC1
    92 | 85 | 105 | -22

Carrying on.
SMILES,Sa growth inh,Sa growth inh second temp,GIV-Gai inh,HCMV NEC inh
COc1cc(SC)ccc1C(=O)Nc1cccnc1,88,86,.,-14
COC(=O)c1nnn(-c2nonc2N)c1CSC#N,100,69,107,13
COc1ccc(C(=O)Nc2ccc(NC(=O)c3ccco3)cc2)cc1OC,108,101,99,-17
CC(C)(C)c1ccc(/C=C/C(=O)NCCCn2ccnc2)cc1,113,76,104,.
COc1cc(CNCc2nnc3ccccn23)cc(I)c1O,90,86,.,-21
O=C(CSc1ncnc2sc3c(c12)CCCC3)N1CCCCC1,92,96,.,9
COc1ccccc1N1CCN(C(=O)c2cc(S(=O)(=O)N3CCCCC3)cn2C)CC1,.,.,109,5
CCOC(=O)c1sc2nccc(Nc3ccccc3)c2c1N,128,94,101,-11
CC(C)C(OC(=O)c1ccccc1)c1nccc2ccccc12 (stereo unspecified),74,74,103,-43
Cc1ccccc1C1C2=C(CC(c3ccccc3)CC2=O)Nc2ncnn21 (stereo unspecified),.,.,104,-11
N#CSC(C#N)Cc1ccccc1 (stereo unspecified),47,25,105,-3
CC(C)(C)Sc1cccc2ccccc12,82,97,.,-6
Cc1nn(CC(=O)O)c(=O)c2ccccc12,.,.,101,-7
CC(=O)Nc1ccc(C(=O)OCC(=O)N2CCc3ccccc32)cc1,110,100,.,12
CC(C)(C)CNC(=O)c1[nH]cnc1C(=O)NC1CC1,.,.,105,-25
Cc1cc(NC(=O)c2cc(-c3ccc4c(c3)OCO4)on2)n(-c2ccccc2)n1,112,81,105,.
COc1cc(Cl)c(C)cc1NC(=O)Cn1cc(C(=O)c2ccncc2)c(=O)c2cc(Cl)ccc21,.,.,118,-23
CC(=O)N1c2ccccc2CC1C(=O)N1CCN(c2ccccc2F)CC1 (stereo unspecified),76,92,96,.
Cc1ccc(NC(=O)C2CCN(S(=O)(=O)c3c(C)noc3C)CC2)cc1,118,96,106,-1
Cc1nc(-c2ccc(F)cc2)sc1CCNC(=O)c1ccc(F)c(F)c1,.,.,110,2
CN1CCN(C/C=C/c2ccccc2)CC1,100,101,108,-7
COc1ccc(-c2noc(CSc3nc(C)cc(=O)[nH]3)n2)cc1OC,96,83,105,-18
CC1=C(/C=C/C(C)=C/C=C/C(C)=C/C(=O)Nc2ccc(O)cc2)C(C)(C)CCC1,91,79,95&101,-28&-7&-7&-18
Cc1cc(N2CCCCC2)nc2ccc(NC(=O)/C=C/c3ccccc3OC(C)C)cc12,84,86,102,-7
O=C(O)CN1C(=O)/C(=C\c2ccc(OCc3ccc(Cl)cc3Cl)cc2)SC1=S,.,.,95,-13
CCN(CC)c1ncc(Br)cn1,99,85,103,-11
CCOC(=O)c1[nH]c(C)c(CCC(=O)Nc2ccc(Br)c(C)c2)c1C,105,89,102,.
Cc1oc(-c2ccc(Cl)cc2)nc1CN1CCC(C(=O)NCc2ccccn2)CC1,.,.,102,-33
O=c1oc2cc(OCc3nn[nH]n3)c(Cl)cc2c2c1CCC2,.,.,101,-14
COc1ccc2c(c1)C(=O)N(c1ccc(Cl)cc1)C(=O)/C2=C/N1CC(C)OC(C)C1 (stereo unspecified),86,82,.,-50
Cc1ccc(S(=O)(=O)N2CCN(c3nc(NC4CCCC4)c4ccccc4n3)CC2)cc1,90,86,.,-1
CCOc1ccccc1C(=O)N1CC(=O)Nc2ccc(Cl)cc2C1c1ccccc1 (stereo unspecified),88,94,100,-10
CCOc1ccc(NC(=O)Cn2c(=O)n(CC3CCCO3)c(=O)c3ccccc32)cc1 (stereo unspecified),108,89,107,-28
O=C(NCCn1cc(SCc2ccc(Br)cc2)c2ccccc21)c1cccs1,116,86,109,15
Cc1cc(Nc2cccc(C(F)(F)F)c2)ncn1,102,83,106,-23
COC(=O)c1cc2oc3ccccc3c2n1Cc1cccc(C)c1,111,93,102&110,-23&1
COc1ccc(OC)c(NC(=O)Nc2c(C)n(C)n(-c3ccccc3)c2=O)c1,79,97,102,61
COc1ccc(NC(=O)CSc2nc(-c3ccco3)cc(C(F)(F)F)n2)c(OC)c1,91,88,97,-30
O=c1ccnc2c1c(-c1ccccc1)nc1[nH]onc12,89,89,102,-45
Cc1ccc2oc(-c3cccs3)nc2c1,113,73,102,-11
CCC(=O)N1CCCC1c1nc2ccccc2n1CCCCOc1ccccc1OC (stereo unspecified),.,.,102,-22
Cc1noc2ncnc(N3CCCCC3C)c12 (stereo unspecified),.,.,100,-7
Cc1ccccc1NCC(=O)N/N=C\c1ccccc1,106,106,98,-18
Cc1ccc(/C=C/C(=O)N(Cc2ccccc2)c2ccccn2)cc1,104,64,112,.
Cc1cc(C)n2nc(C(=O)OCc3cccc(S(=O)(=O)N(C)C)c3)nc2n1,108,109,.,-7
Cc1cc(Cl)ccc1Oc1cc(C(F)(F)F)cnc1C#N,.,.,100,-19
CCn1c(=S)ccc2cc(OC)ccc21,81,75,102,-72
COc1ccc(Cl)cc1NC(=O)c1cnc2sc(N3CCOCC3)nn2c1=O,78,86,102,.
COc1ccc(C(=O)CSc2nc3c([nH]2)c(=O)[nH]c(=O)n3C)cc1,119,86,.,6
CN(C(=O)c1cn(C2CCCC2)c(=O)c2c1c1ccccc1n2C)c1cccc(C(F)(F)F)c1,92,96,100,.
COC(=O)C(C)NC(=O)c1ccc(C)cc1 (stereo unspecified),95,88,.,-28
CCOCCCNC(=O)c1c[nH]c2ccc(S(=O)(=O)Nc3cccc(Cl)c3C)cc2c1=O,97,84,97,-15
O=C(CSc1ccc2ccccc2c1)NCCN1C(=O)CSC1=O,98,94,.,-40
CCn1nccc1C(=O)Nc1cc(C(=O)OC(C)C)cc(C(=O)OC(C)C)c1,66,88,.,-31
COc1cc(/C=c2\sc3nc4ccccc4n3c2=O)c(Br)cc1OC(C)=O,.,.,102,-10
C=CCSc1nn2c(=O)c3ccccc3nc2s1,87,87,99,10

Additional results
SMILES,Sa growth inh,Sa growth inh second temp,GIV-Gai inh,HCMV NEC inh
COc1ccc(Cn2c(CCC(=O)Nc3ccc(CC#N)cc3)nc3cccnc32)cc1,99,88,102,-23
CN1CCN(S(=O)(=O)c2ccc(SCc3ccc(F)cc3)nc2)CC1,89,82,.,-24
COCn1nc(-c2ccccc2Cl)oc1=S,80,108,.,4
Cc1ccc(NC(=O)Nc2nnc(SCC(=O)N3CCC(C)CC3)s2)cc1,89,86,98&99,.
